Env fusion inh = inhibitors of HIV Env-mediated cell fusion; HeLa-JRFL Env/CEM21 cell fusion, luciferase; inhibition, % at 12.3 µM; 360,000 compounds, 1.1% hits; AID 651610;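 active means mean replicate inhibition score of at least 50 and every replicate individually at or above 50; inconclusive means only one of the two criteria met; inactive means mean below 50 and not all replicates reaching 50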;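 further: 0% = plate neutral controls and 100% = maraviroc near 300 nM; one replicate is shown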
eIF4H FP inh = inhibitors of RNA binding by human eIF4H | eIF4H fluorescence polarization binding assay | inhibition, % at 35 µM | Q15056 | 290,000 compounds, 0.94% hits;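 active means 50% or more with normal probe brightness, or confirmed in later tests; inconclusive means above 50% with abnormal brightness, or retests that disagree; inactive means below 50% or failed in later tests; about a fifth of its hits are not listed in these tables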;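 further: calls also rest on retests at 20 µM and on dose response follow-up; 0% = protein and probe with vehicle and 100% = probe without protein; strong numbers were not always called active; many hits fall short of the cut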
Rce1 inhib = inhibitors of yeast Ras-converting enzyme; yeast membranes, quenched prenylated peptide cleavage fluorescence; 290,000 compounds, 0.27% hits; Q03530; calls only;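 active means fall in fluorescence gain of 50% or more versus controls, with final raw signal at or below 3038400; inconclusive means same 50% fall but final raw signal above 3038400; inactive means fall in fluorescence gain under 50%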;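 further: plate controls were neutral control wells for no effect and wells lacking membranes for full effect; tested at 10 µM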
Target sequence (Q03530 whole entry, looked up): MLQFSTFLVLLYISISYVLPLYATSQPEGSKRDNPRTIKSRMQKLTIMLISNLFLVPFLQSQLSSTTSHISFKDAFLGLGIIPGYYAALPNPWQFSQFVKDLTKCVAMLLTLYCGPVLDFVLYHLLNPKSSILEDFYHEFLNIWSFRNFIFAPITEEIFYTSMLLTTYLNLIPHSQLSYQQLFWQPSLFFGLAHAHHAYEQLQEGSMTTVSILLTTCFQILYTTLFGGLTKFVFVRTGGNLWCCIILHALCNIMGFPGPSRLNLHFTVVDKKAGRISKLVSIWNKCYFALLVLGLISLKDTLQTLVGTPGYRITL
PABP FP inh = blocks human PABP binding to poly(A) RNA | P11940 | fluorescence polarization | inhibition, % at 35 µM | 290,000 compounds, 1% hits | AID 2014;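 active means 50% or more with normal probe brightness, or confirmed in later tests; inconclusive means above 50% with abnormal brightness, or retests that disagree; inactive means below 50% or failed in later tests; about a fifth of its hits are not listed in these tables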;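 further: calls also rest on retests at 20 µM and on dose response follow-up; controls were probe without protein and protein plus probe with vehicle; some compounds called inactive have numbers as strong as hits; many hits fall short of the cut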
Yeast UUG start = alters start codon recognition fidelity in yeast; activity score, % at 18.7 µM; S. cerevisiae UUG-firefly luciferase reporter, luminescence/redox ratio; AID 602363; 350,000 compounds, 0.13% hits;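 active means replicate mean at a twofold rise or more, about +100% in these data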;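 further: firefly luciferase made from a UUG start codon reports start codon fidelity; reporter light over untreated wells divided by growth signal over untreated wells; some hits fall short of that in this replicate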
MT1-MMP act inh = MT1-MMP (human) activation inhibition | GFP/RFP ratio change, % at 20 µM | HT1080 RFP-PRO-GFP cells, GFP/RFP ratio fluorescence, overnight; percent of plate control window, DMSO zero | P50281 | 360,000 compounds, 0.061% hits;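 active means GFP/RFP ratio change of at least 30% with cell ATP level not reduced by more than half and red fluorescence within 50% of control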; further: strong numbers were not always called active
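Compound: 20 µM single dose, 1% DMSO / System: HT1080 RFP-PRO-GFP cells / Controls: DMSO and RFP-L50D-GFP cell wells / Read-out basis: GFP/RFP fluorescence ratio / Schedule: overnight compound exposure at 37 °C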
CSC inhib = blocks cancer stem cells. cancer stem cell-like cells viability, luminescence. inhibition, % at 7.5 µM. 300,000 compounds, 1.1% hits;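 active means mean at 75% or more and at least half the replicates too; inconclusive means mean and replicates disagree; tested in HMLE shEcad cells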;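 further: 0% = median of negative and 100% = median of positive control wells; the first replicate is given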
MT1-MMP act inh RFP = also measured in MT1-MMP act inh; calls as there; RFP signal change, %; measured here: RFP expression control read;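 0 = vehicle wells; hits needed this value within 50% of zero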
Starred values were filed as active, the others as inactive; i = inactive; u = inconclusive; x = not tested or not shown.

SMILES	Env fusion inh	eIF4H FP inh	Rce1 inhib	PABP FP inh	Yeast UUG start	MT1-MMP act inh	MT1-MMP act inh RFP	CSC inhib
CCOc1ccc(NC(=O)CSc2nnc(C)n2CC)cc1	8.0	-1.6	i	3.1	-18.1	-1.6	-0.7	-17.4
CCC(C)C(=O)Nc1ccc(S(=O)(=O)N2CCCC2)cc1 (stereo not drawn)	2.5	-4.3	i	-0.4	-23.7	0.2	-2.2	52.1
O=C(N/N=C/c1ccc(OC(F)F)cc1OC(F)F)NC1CCCCC1	3.0	6.1	i	-5.0	x	0.2	-2.5	-3.8
CCc1cccc(C)c1NC(=O)CCN1C(=O)NC(C)(C)C1=O	11.1	x	x	x	-15.2	0.6	3.2	x
COCCNC(=O)C(c1cccnc1)N(Cc1ccc(C)cc1)C(=O)Cn1nnc2ccccc21 (stereo not drawn)	-11.2	9.5	i	8.7	x	-1.9	-0.3	-4.1
O=C(Nc1nc2ccccc2[nH]1)C1CCCC1	-31.5	-4.4	i	0.3	-18.0	-4.1	-1.3	7.6
CCOC(=O)c1c(NC(=O)c2cccs2)sc(C(=O)N2CCOCC2)c1C	14.0	x	i	x	-2.2	2.4	-1.0	-8.1
CC(C)(C)SCCNC(=O)/C=C/c1cccc([N+](=O)[O-])c1	19.9	-5.7	i	-3.9	x	0.9	5.1	-14.0
c1ccc(Cn2ccnc2SCc2nnc(-c3ccccc3)o2)cc1	x	-6.0	i	4.3	-21.8	4.8	-1.5	-14.9
O=C(CSc1nnnn1Cc1ccccc1)NCC(=O)c1ccccc1	-34.8	-7.2	i	6.9	-13.1	2.8	7.9	0.9
COc1cc(O)c(C(CCN2CCN(c3ccccc3)CC2)c2ccc(N(C)C)cc2)c(OC)c1 (stereo not drawn)	38.6	-1.8	i	-8.2	0.7	-5.5	-6.1	7.9
CN(Cc1nc2ccc(F)cc2[nH]1)Cc1c(C(=O)N(C)C)nc2ccc(Cl)cn12	14.6	9.6	i	14.2	x	-0.5	1.7	-7.1
NC(=S)NNC(=O)[C@@H]1CCCC[C@@H]1C(=O)O	x	-0.7	i	14.1	-16.7	0.1	0.7	-12.2
CCOc1ccc(Cn2c(=O)oc3ccccc32)cc1	-0.4	2.0	i	-3.1	-9.2	2.1	6.7	x
O=C(C(Cl)c1ccccc1)N1CCCC1 (stereo not drawn)	-10.5	-24.5	i	1.0	-10.3	-1.0	1.0	-9.4
O=C(CSc1nc2ccccc2c2nc3ccccc3n12)NCc1ccco1	-88.2	41.8	i	0.3	-17.0	-1.5	-0.3	19.2
COc1ccc(NC(=O)c2cc(-c3cc(OC)c(OC)c(OC)c3)nc3ccccc23)c(OC)c1	-7.0	-8.3	i	0.6	5.4	4.4	-4.5	7.4
O=C([C@H](Cc1ccc(O)cc1)n1cc(CCO)nn1)N1CCNCC1	-14.8	2.8	i	6.0	16.2	1.5	6.9	0.1
CCCNC(=O)CCc1nnc2ccc(N3CCC(C)CC3)nn12	-15.5	2.5	i	-6.0	-2.1	-5.0	-3.2	-15.5
O=C(Cc1ccccc1)NC1(O)C(=O)c2ccccc2C1=O	-18.3	-4.3	i	-1.2	4.0	3.9	4.6	-1.5

Single records, as listed above. Screens in order: Env fusion inh	eIF4H FP inh	Rce1 inhib	PABP FP inh	Yeast UUG start	MT1-MMP act inh	MT1-MMP act inh RFP	CSC inhib
c1ccc(Cn2ccnc2SCc2nnc(-c3ccccc3)o2)cc1 as listed: x	-6.0	i	4.3	-21.8	4.8	-1.5	-14.9
O=C(CSc1nnnn1Cc1ccccc1)NCC(=O)c1ccccc1 as listed: -34.8	-7.2	i	6.9	-13.1	2.8	7.9	0.9
O=C(Cc1ccccc1)NC1(O)C(=O)c2ccccc2C1=O as listed: -18.3	-4.3	i	-1.2	4.0	3.9	4.6	-1.5
CCOc1ccc(Cn2c(=O)oc3ccccc32)cc1 as listed: -0.4	2.0	i	-3.1	-9.2	2.1	6.7	x

Additional entries follow.
SMILES	Env fusion inh	eIF4H FP inh	Rce1 inhib	PABP FP inh	Yeast UUG start	MT1-MMP act inh	MT1-MMP act inh RFP	CSC inhib
COc1cccc(/C=C2/Sc3ccc(C(=O)NCCN4CCCC4)cc3NC2=O)c1	11.3	5.3	i	16.1	-13.6	-0.1	1.9	31.1
C=C1[C@@H](C)C2[C@H](Cc3ccccc3)NC(=O)[C@]23OC(=O)CC[C@H](O)CCC[C@H](C)C/C=C/[C@H]3[C@@H]1O (stereo partly drawn)	x	-5.8	i	-7.4	x	x	x	x
O=C(NCC(c1ccco1)N1CCOCC1)c1cccc([N+](=O)[O-])c1 (stereo not drawn)	-14.9	-12.7	i	-2.6	-23.1	-1.0	0.3	0.9
OC(CN1CCN(c2ccccn2)CC1)Cn1c2ccc(Cl)cc2c2cc(Cl)ccc21 (stereo not drawn)	0.7	-0.2	i	-11.6	-10.4	-2.2	-5.6	105.3*
COc1ccccc1C(=O)NNC(=O)c1ccc(Br)o1	-33.2	1.3	i	1.3	-10.0	-0.8	3.0	-8.1
O=C(NCCN1CCOCC1)c1ccccc1Cl	-14.5	-6.9	i	-1.7	-1.7	2.4	2.6	7.8
CCOC(=O)C(Cc1ccccc1)NC(=O)Cn1nnc(-c2ccccc2)n1 (stereo not drawn)	-7.0	2.8	i	-3.2	-4.6	10.8	1.8	-13.2
O=C(NCCC1=CCCCC1)C1CCCN(S(=O)(=O)c2cccc3cccnc23)C1 (stereo not drawn)	-0.9	-5.8	i	5.4	-12.0	4.7	-10.1	9.7
CCCCOCCCNC1=NCCCCC1	-39.5	-6.7	i	-3.3	14.9	-5.1	-5.5	-3.9
CC1=CC(C)(C)N(C(=O)CSc2nnc(C)s2)c2ccc(C)cc21	x	-7.1	i	1.8	-13.1	-1.9	-0.2	-7.6
COc1ccc(N=c2oc3cc(O)ccc3cc2C(=O)NCC2CCCO2)cc1 (stereo not drawn)	-139.4	14.2	i	-8.4	-17.0	9.7	-1.0	-5.6
COc1ccc(CNC(=O)[C@@H]2CC=C[C@@H]3CCN(C4CC4)C(=O)[C@@H]32)cc1	-28.0	x	i	x	-13.7	4.1	2.1	-3.0
CCN(CC)S(=O)(=O)c1ccc(C(=O)Nc2ccc(C(F)(F)F)n(C)c2=O)cc1	7.3	-5.9	i	-7.0	-14.8	0.7	4.9	-7.1
CC(C)(C)NC[C@@H](O)COc1cccc2c1CCCC2=O	25.1	x	x	x	-8.8	2.5	7.7	-7.8
CCc1ccccc1OCC(=O)Nc1ccc(C)c(S(=O)(=O)N2CCCCCC2)c1	x	x	x	x	-18.1	-3.2	-19.2	5.5
CCCCNS(=O)(=O)c1ccc2c(c1)oc(=O)n2CC(=O)OCC	3.6	-1.9	i	7.9	-8.4	-0.5	5.0	-5.8
Cc1[nH]c2ccccc2c1Cc1nnc(SCCC#N)o1	u	15.7	i	37.3	-23.5	-6.5	-3.5	-10.6
COC(=O)C(Cc1ccc(O)cc1)NC(=O)C1CCN(S(=O)(=O)c2ccc(C)cc2)CC1 (stereo not drawn)	1.1	-1.1	i	-6.2	4.7	0.3	0.4	-3.7
COc1ccc(S(=O)(=O)NCCCCCC(=O)NCCCN2CCOCC2)cc1	x	-1.4	i	-3.2	-6.3	4.1	3.0	-13.5
COC(=O)c1ccc2c(=O)n(CCO)c(=S)[nH]c2c1	-173.3	2.4	i	0.5	-0.8	6.8	4.1	-3.1
O=C(Cc1ccc(Br)cc1)N/N=C/c1ccc(-c2cccc(C(=O)O)c2)o1	-11.6	38.2	i	26.3	-10.5	-4.7	-2.6	-16.5
CC1=CC2=NC(=O)/C(=C\c3cccn3CCOc3cc(C)ccc3C)C(=N)N2O1	x	-3.5	i	3.4	-15.3	-5.9	-11.2	-8.9
Cc1cc(C(F)(F)F)nn1CC(=O)NNC(=S)NCC(C)C	-45.1	-4.2	i	3.0	-18.1	-0.5	3.9	x
CC(=O)Nc1ccc(NC(=O)CSc2ccc(-c3cccs3)nn2)cc1	-8.5	-4.8	i	-2.0	-5.1	-4.3	-3.6	-13.1
N#Cc1cc(N2CCCCC2)c([N+](=O)[O-])cc1C#N	-22.2	-6.3	i	-5.5	x	10.6	0.8	43.0
O=C(NCCC(=O)N1CCN(c2ncccn2)CC1)c1ccccc1Cl	x	-3.1	i	5.1	-13.2	7.4	4.9	-20.2
OCCN1CCN(Cc2cc(Cl)c3cccnc3c2O)CC1	20.9	11.4	i	1.3	x	3.6	4.2	22.5
COC(=O)c1ccccc1NC(=O)C1CCCN(S(C)(=O)=O)C1 (stereo not drawn)	x	3.1	i	0.2	6.7	3.5	2.0	-1.6
Cc1cc(-n2nc(C)cc2C)nc(NS(=O)(=O)c2ccccc2)n1	x	14.7	x	-2.3	-11.5	3.8	4.4	26.1
Nn1c(SCC(=O)N2CCCC2)nnc1-c1cccs1	52.2	x	x	x	-19.0	10.1	9.8	x
NCCN=C1NS(=O)(=O)c2ccccc21	x	-11.5	i	-11.3	-2.2	-5.8	-2.4	4.0
CCOCC(O)CNC(=O)c1ccc2nc(Cc3ccc(OC)c(OC)c3)oc2c1 (stereo not drawn)	5.8	-3.2	i	-3.5	-12.4	5.4	-4.8	-12.0
NC(=O)CS(=O)(=O)c1nc2ccccc2n1CC(=O)N1CCCCC1	14.1	-8.8	i	-8.4	-20.2	2.8	-1.1	-5.3
O=c1cc2c(nn1Cc1c(Cl)cccc1Cl)-c1ccccc1CC2	2.8	6.7	i	-1.8	-6.4	-15.5	-8.3	0.6
COC(=O)c1c(C(=O)OC)c2n(c1C)CCS2	9.4	-0.2	x	-6.0	x	-0.3	1.8	-1.7
CC(C)CNS(=O)(=O)c1ccc(CCC(=O)NCCc2ccccc2)cc1	13.9	-2.8	i	-9.5	14.7	-2.5	-2.9	9.2
O=C(Oc1ccc(-n2cnnn2)cc1)c1ccco1	-26.3	-15.9	i	4.2	-13.7	4.6	4.6	4.2
COc1cc(C(C)=O)ccc1OC(=O)N1CCOCC1	-15.1	x	x	x	-12.5	0.8	2.7	x
CCN(c1cccc(C(F)(F)F)c1)S(=O)(=O)c1ccc2c(c1)CCN2C(=O)C1CC1	x	2.4	i	17.9	-9.9	-1.2	-19.3	12.3
CC(C)(C)c1nnc(NC(=O)CN2C(=O)C3C4C=CC(C4)C3C2=O)s1 (stereo not drawn)	12.7	0.6	i	0.5	4.9	3.8	3.1	6.6
Cc1cccc(OCC(=O)NCC(=O)N/N=C/c2c(C)[nH]c3ccccc23)c1	21.6	-8.9	i	-2.2	-11.9	2.5	1.6	24.0
CN(C)CCN1C(=O)c2oc3ccc(F)cc3c(=O)c2C1c1ccncc1 (stereo not drawn)	-3.6	-6.4	i	-0.3	7.9	-5.3	0.7	-7.0
Cc1ccc(OCC(O)CN2CCOCC2)cc1 (stereo not drawn)	3.3	0.6	i	-4.0	-17.3	-1.8	1.8	-5.1
CC(C)c1ccc(NC(=S)NCc2ccc3c(c2)OCO3)cc1	-1.6	-17.7	i	2.2	x	-4.9	-1.4	11.6
COc1ccc(C(CNC(=O)c2cccc(S(=O)(=O)N3CCCc4ccccc43)c2)N(C)C)cc1 (stereo not drawn)	8.8	x	x	x	-7.3	3.1	1.1	x
C(#CCN1CCC(Cc2ccccc2)CC1)COCCOCc1ccccc1	4.3	3.4	i	14.1	x	-2.2	1.0	x
CN(C(=O)COC(=O)/C=C/c1ccc(C(F)(F)F)cc1)c1c(N)n(Cc2ccccc2)c(=O)[nH]c1=O	30.4	x	i	x	12.1	1.1	-3.3	x
Nc1nc(-c2cccs2)c(-c2cccs2)s1	-16.7	-1.9	i	7.6	-13.4	-3.9	-2.1	-4.6
Cc1cn([C@H](C(=O)NCCCCCCCCCCC(=O)N2CCNCC2)[C@@H](C)O)nn1	-17.5	x	x	x	-10.3	4.6	1.5	-15.1
